Screening data (PubChem BioAssay)
Beta2AR agonist = human beta-2 adrenergic receptor agonism by FAP | AID 504454 | response, % (concentration not given with the values) | 0.43% of 340,000 active | P07550 | Am2.2-beta2AR cells, FAP receptor internalization, flow cytometry; reference of the scale not given here;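 active means response above a set limit, near 3 SD of response in nonfluorescent compounds, cut at about 42% in these data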;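 further: stock transfer was 100 nL into about 11 µL; a reference agonist was the positive control; negative values mostly stem from fluorescent compounds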
Vif A3G = inhibitors of Vif binding to APOBEC3G peptide, primary screen, biochemical, TR-FRET, GST-Vif 1-94, biotin-A3G peptide, dose response retest (AID 1117319) | 0.57% of 260,000 active | TR-FRET GST-Vif / biotin-A3G peptide binding; higher % means a stronger effect; test concentration not given here; strong numbers were not always called active | inhibition, %, or IC50 in µM where a hit was titrated;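 active means above the screen mean plus three standard deviations and confirmed in dose response; inconclusive means results disagree or hit not tested in dose response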;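 further: Vif residues 1-94 fused to GST binding biotinylated APOBEC3G peptide 110-148; 0% = full assay without inhibitor and 100% = GST in place of GST-Vif; retest series ran down from 100 µM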
E coli growth = E. coli growth inhibition. Escherichia coli growth, OD600, 23 h; stronger effect = lower value. OD600 absorbance (no concentration beside the values). 0.21% of 330,000 active. AID 1053175;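 active means OD600 absorbance below the run mean of sample wells minus 3.6 SD, in any replicate, cut at about 0.56 in these data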;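 further: stock transfer was 300 nL into about 60 µL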
LANA-H2B inh = blocks KSHV LANA binding to histone H2A/H2B | cell-free LANA-H2A/H2B peptide, fluorescence polarization | 0.6% of 320,000 active | Q9QR71 | inhibition, % (no concentration beside the values); in the data active means inhibition mostly above about 10%, no sharp cut-off; inactive means mostly below about 6.7%;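 further: stock transfer was 7.5 nL into about 10 µL; 0% = median of vehicle wells and 100% = median of positive control wells; one replicate is shown; the record names a cut of 25% in any replicate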
HNF4A DNA FP = change in binding of human HNF4 alpha to DNA. P41235. HNF4a-FITC DNA binding, fluorescence polarization, 1 h. 0.3% of 360,000 active. activity change, % at 10 µM; in the data active means activity change above about 30%, passing the limit was not always enough;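 further: controls were the assay level and a saturating level of protein; the project sought stronger binding though the title names inhibitors; some compounds called inactive have numbers as strong as hits; positive values seem to mean higher polarization but the record does not say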
Target sequence (P41235 whole entry, looked up): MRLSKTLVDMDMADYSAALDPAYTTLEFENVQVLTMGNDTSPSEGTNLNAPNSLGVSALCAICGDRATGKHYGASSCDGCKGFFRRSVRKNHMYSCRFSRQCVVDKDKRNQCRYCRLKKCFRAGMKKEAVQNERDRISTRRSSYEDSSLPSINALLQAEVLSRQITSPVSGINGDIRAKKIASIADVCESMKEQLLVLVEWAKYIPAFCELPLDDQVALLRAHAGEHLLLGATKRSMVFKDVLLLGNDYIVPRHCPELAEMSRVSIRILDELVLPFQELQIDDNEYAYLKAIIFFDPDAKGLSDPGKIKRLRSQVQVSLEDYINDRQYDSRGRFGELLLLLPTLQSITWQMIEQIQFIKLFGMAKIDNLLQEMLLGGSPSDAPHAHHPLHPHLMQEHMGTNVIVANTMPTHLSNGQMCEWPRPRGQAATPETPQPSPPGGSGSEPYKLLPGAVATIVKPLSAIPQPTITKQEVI
A1 inh = inhibitors of the anti-apoptotic protein A1, read as caspase activation | MEF A1-2A-BIM cells, Caspase-Glo 3/7 luminescence, 3 h; percent of clofoctol response, vehicle zero | caspase activation, % (concentration not given with the values) | 0.066% of 330,000 active;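 active means over half of replicate activation scores above 10%, or exactly half above 10 with the replicate mean above 10; inconclusive means replicate mean below 10 yet half the replicates above 10; inactive means over half of replicates below 10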;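 further: wells of about 30 µL received 50 nL stock; many hits fall short of the cut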
UCH37 DUB inh = human UCH37 deubiquitinating enzyme inhibition. purified proteasome/UCH37, Ub-AMC cleavage fluorescence. inhibition, % (concentration not given with the values). 0.33% of 330,000 active. AID 588478;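 active means mean of two replicates above 20%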;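 further: 0% = compound-free wells with enzyme and 100% = wells lacking proteasome; stock transfer was 100 nL into about 20 µL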
Target sequence (Q9Y5K5 whole entry, looked up): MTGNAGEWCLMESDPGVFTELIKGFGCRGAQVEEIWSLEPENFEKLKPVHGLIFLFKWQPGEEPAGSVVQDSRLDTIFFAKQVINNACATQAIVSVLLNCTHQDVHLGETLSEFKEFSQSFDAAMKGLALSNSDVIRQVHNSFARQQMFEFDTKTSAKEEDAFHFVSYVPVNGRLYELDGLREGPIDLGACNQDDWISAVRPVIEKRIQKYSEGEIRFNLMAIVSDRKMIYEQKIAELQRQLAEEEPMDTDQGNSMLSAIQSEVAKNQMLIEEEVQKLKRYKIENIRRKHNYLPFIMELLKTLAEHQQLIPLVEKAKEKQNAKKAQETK
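Signal – fluorescence, ex 355 nm, em 460 nm · System – Proteasome-bound UCH37 · Input – 0.15 nM proteasome as dispensed · Timing – 30 min preincubation with enzyme, 25 min cleavage at room temperature · Read-out basis – percent inhibition of cleavage signal versus uninhibited and no-proteasome wells · Medium – Tris-HCl pH 7.4 with ATP-MgCl2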
The depositor's hits bear a star; i = inactive; u = inconclusive; x = not tested or not shown.

canonical_smiles | Beta2AR agonist | Vif A3G | E coli growth | LANA-H2B inh | HNF4A DNA FP | A1 inh | UCH37 DUB inh
COc1cccc(C(C(=O)NCC2CCCO2)N(C(=O)Cn2nnc3ccccc32)c2ccc(NC(C)=O)cc2)c1OC (stereo not drawn) | -5 | x | 0.65 | -0.2 | 3.6 | -0.1 | -0.5
N/C(=N\N=C\c1ccco1)SC1CC(=O)N(c2ccc(C(=O)O)cc2)C1=O (stereo not drawn) | -3 | -1% | x | 0.3 | -2.8 | -0.2 | x
CCOC(=O)N1CCN(C(=O)CSc2nnc(-c3c[nH]c4ccccc34)n2CCOC)CC1 | -6 | 5% | 0.67 | 0.1 | 4.5 | -1.5 | 2.3
O=C(NC1CCCC1)c1ccc2c(c1)N(Cc1ccccc1)CCS2 | 1 | x | 0.64 | -0.6 | -0.9 | 0.4 | -278
Cn1c(-c2cccc(OCc3ccccc3)c2)nc2c1c(=O)[nH]c(=O)n2Cc1ccccc1 | -21 | -3% | 0.72 | 4.6 | 3.2 | 0.1 | -19
Clc1ccc(-c2nnc(-c3ccc(Br)o3)o2)c(Cl)c1 | -11 | -8% | 0.72 | -2.0 | 5.6 | -2.2 | -10
COCCN(C(=O)c1ccc(N2CCCC2=O)cc1)c1c(N)n(CC(C)C)c(=O)[nH]c1=O | 5 | -19% | 0.7 | 2.4 | -3.9 | 0.3 | 0.3
O=C(CSc1nnnn1C1CCCC1)N1CCCCC1 | 4 | x | 0.68 | x | -0.2 | x | 2.4
O=C1NCCCC1C(=O)N/N=C/c1ccc(Cl)cc1 (stereo not drawn) | -4 | 1% | x | 4.0 | 1.0 | -0.3 | x
CCC(C)(C)NC(=O)C(c1ccccc1F)N(Cc1ccco1)C(=O)Cn1nnc2ccccc21 (stereo not drawn) | 17 | 5% | 0.72 | 18 | 0.1 | 0.8 | -1.5
CN1CCN(C(=O)c2ccccc2-c2nc(-c3ccccc3)no2)CC1 | -9 | u | 0.71 | -1.0 | -0.1 | -0.6 | 0.7
Cc1ccc(C(C2=C(O)CC(C)(C)CC2=O)C2C(=O)CC(C)(C)CC2=O)o1 (stereo not drawn) | 6 | -6% | 0.73 | -3.8 | 1.5 | 0.4 | 4.2
CC(=O)c1cccc(OCc2cc(C(=O)N(C)CCc3cnn(C)c3)no2)c1 | 4 | 0% | 0.66 | 7.9 | -0.8 | 1.4 | -1.5
CCOC(=O)c1ccc(NC(=O)CSc2nc(C)nc3c2c(=O)n(C)c(=O)n3C)cc1 | -1 | -11% | 0.66 | 3.9 | 3.3 | -0.2 | 2.8
COc1ccc(NS(=O)(=O)c2ccc(OC)c(NC(=O)CCC3CCCCC3)c2)cc1 | -2 | -2% | 0.73 | 0.0 | 0.5 | 0.9 | 4.6
Cc1ccccc1OCC(=O)N1N=C(c2cccnc2)CC1(O)C(F)(F)F (stereo not drawn) | -13 | 31% | 0.67 | -1.7 | 3.1 | 1.0 | 1.1
COC(=O)c1ccc(NC(=S)NCCCN2CCCC2=O)cc1 | 5 | -7% | 0.69 | 3.7 | -0.4 | 0.1 | 2.3
CCc1ccc(C(=O)C(C)OC(=O)CNS(=O)(=O)c2ccc(C)cc2)cc1 (stereo not drawn) | 4 | 6% | 0.63 | 2.5 | 0.6 | 1.0 | 1.3
COc1ccc(C(C)(C)C)cc1NC(=O)CCCN1C(=O)CN(C)C1=O | -4 | -8% | 0.67 | x | 3.7 | x | -0.8
O=C1c2ccccc2S(=O)(=O)N1Cc1ccccc1[N+](=O)[O-] | 7 | x | 0.66 | 0.6 | -0.8 | 0.1 | 1.8
Cc1ccc(-n2c(SCC(=O)NCc3ccco3)nc3c(sc4ccccc43)c2=O)cc1 | -1 | -14% | 0.69 | -3.1 | 2.6 | 0.7 | -4.5
COc1ccc(S(=O)(=O)N2CCN(Cc3ccc(OC)c(OC)c3)CC2)cc1 | -1 | x | 0.62 | -5.3 | 2.1 | 0.2 | 2.6
O=[N+]([O-])c1ccc(N2CCN(c3ccccc3F)CC2)nc1 | 6 | 0% | 0.71 | 2.2 | -3.7 | 0.9 | 4.1
CN1CCN(CCCNC(=O)Cn2ncc3c4ccccc4n(C)c3c2=O)CC1 | 5 | 28% | 0.69 | -5.1 | -3.8 | -0.3 | -7.4
Cc1ncn(-c2ccc(C(=O)Oc3ccccc3)cn2)n1 | -2 | -11% | 0.67 | -7.0 | -3.0 | 0.1 | -2.9
COc1ccc(CCC(=O)Nc2nc3c(s2)CN(C)CC3)cc1OC | 3 | u | 0.67 | 8.3 | -1.0 | -0.5 | 2.1
O=C(Nc1ccc(F)c(F)c1)c1ccccc1-c1ccccc1 | 1 | 13% | 0.69 | -2.3 | 1.6 | -0.4 | -0.5
COc1cc2c(cc1OC)CN(C(=O)c1cc(S(=O)(=O)N3CCOCC3)ccc1C)CC2 | -9 | 14% | 0.58 | 3.1 | 3.6 | -0.2 | 1.3
CCc1ccccc1Nc1nc(N)nc(COC(=O)CCNS(=O)(=O)c2ccccc2)n1 | -1 | -3% | 0.7 | -2.6 | 0.5 | 1.4 | 2.6
c1ccc(C2(CN3CCNC[C@@H]3CC3CCCCC3)CC2)cc1 | 7 | x | x | 1.1 | 1.6 | 0.0 | 5.7

Looked up one by one from the list above (two):
canonical_smiles | Beta2AR agonist | Vif A3G | E coli growth | LANA-H2B inh | HNF4A DNA FP | A1 inh | UCH37 DUB inh
O=C(Nc1ccc(F)c(F)c1)c1ccccc1-c1ccccc1 | 1 | 13% | 0.69 | -2.3 | 1.6 | -0.4 | -0.5
COc1cc2c(cc1OC)CN(C(=O)c1cc(S(=O)(=O)N3CCOCC3)ccc1C)CC2 | -9 | 14% | 0.58 | 3.1 | 3.6 | -0.2 | 1.3

Carrying on:
canonical_smiles | Beta2AR agonist | Vif A3G | E coli growth | LANA-H2B inh | HNF4A DNA FP | A1 inh | UCH37 DUB inh
O=C(O)CCc1ccc(-c2cccs2)n1NC(=O)c1cccs1 | 0 | -7% | 0.71 | -1.4 | -1.4 | -0.8 | 2.7
CC(C)(C)OC(=O)N1CCN(c2ccc(CNC(=O)c3ccc(Cl)cc3)cc2)CC1 | -2 | 24% | 0.7 | 0.0 | 0.6 | 0.3 | 0.6
O=C(c1ccc2c(c1)OCO2)N1CCOCC1 | -12 | -9% | 0.65 | -0.5 | 0.9 | 0.9 | 0.6
CC(=O)Nc1ccc2nc(-c3cccnc3)[nH]c2c1 | -1 | 12% | 0.72 | -0.7 | 2.7 | -0.3 | -1.1
COc1ccc(/C=C2\CC/C(=C\c3ccc(OC)cc3OC)C2=O)c(OC)c1 | -63 | 7% | 0.68 | 1.5 | 124 | -0.6 | 2.8
O=[N+]([O-])c1ccc(C=NNc2ccc(S(=O)(=O)O)cc2)cc1 | 5 | 7% | 0.69 | x | 3.3 | x | 17
CCc1ccccc1NCC(=O)Nc1ccccc1C(=O)OC | 2 | x | 0.67 | -2.9 | -0.2 | 1.1 | 3.9
CSc1nsc(SCC(=O)Nc2nc3ccc(C)cc3s2)n1 | 8 | -8% | 0.69 | 1.0 | 2.2 | -1.4 | 1.8
O=C(NCc1ccccc1Cl)c1ccc(S(=O)(=O)N2CCCC2)cc1 | 3 | -10% | 0.69 | x | -2.9 | x | 0.8
CCn1cc(C(=O)O)c(=O)c2cc(F)c(N3CCN(C(=S)NC(=O)c4ccccc4F)CC3)cc21 | 3 | -3% | 0.073* | 1.4 | -2.2 | 0.9 | -13
Cc1nc(/N=C(\N)NC(=O)N2c3ccccc3Sc3ccccc32)nc2ccccc12 | -5 | x | x | -1.8 | -1.3 | 0.8 | x
CC(=O)c1ccc(NC(=O)CC2Nc3cccc4cccc(c34)NC2=O)cc1 (stereo not drawn) | 1 | x | 0.64 | 0.1 | -6.8 | 0.4 | 2.4
CCCOc1ccc(-c2nc(C#N)c(NCCCn3ccnc3)o2)cc1 | -11 | 3% | 0.62 | 1.3 | 1.6 | 0.3 | -123
CCCCn1nc(C(=O)NCC2COc3ccccc3O2)c2ccccc2c1=O (stereo not drawn) | 6 | -12% | 0.69 | 6.6 | 1.3 | -0.7 | 0.6
COc1ccc(CCNC(=O)CCc2ccccc2)cc1OC | 4 | x | 0.62 | 2.2 | 2.4 | 0.6 | 1.6
Cc1cc(C(=O)CN2C(=O)NC3(CCCCC3C)C2=O)c(C)n1Cc1cccs1 (stereo not drawn) | 5 | -6% | 0.68 | 4.8 | -0.9 | 0.6 | 3.6
CSc1c(CC(=O)Nc2ccccc2)n(C)c2ccccc12 | -3 | -7% | 0.67 | 1.7 | 3.6 | 0.1 | 0.5
S=C(NCCc1ccccc1)Nc1cnc2ccccc2c1 | 3 | -16% | 0.63 | -6.2 | 3.6 | 0.3 | 1.7
COc1ccc(CNc2ccc(-c3ccc(OC)cc3)nn2)cc1 | 7 | -1% | 0.73 | 0.5 | 4.9 | -0.3 | 2.7
CNC(=O)c1nc(C)n(-c2cc(Cl)cc(Cl)c2)n1 | 0 | 28% | 0.68 | 2.6 | -2.7 | -0.3 | 3.6
CCC(=O)N(CCC(c1ccco1)C(C)C)Cc1ccccc1 (stereo not drawn) | -1 | x | 0.67 | 0.1 | -6.1 | -1.3 | 2.3
CC(=O)n1c(Cl)c(NC(=O)CCl)c2ccccc21 | -1 | 63% | 0.64 | -1.4 | 2.4 | 0.0 | 7.1
O=C(NC1CCCCC1)C(=S)N1CCOCC1 | 1 | 20% | 0.7 | 1.1 | 4.4 | -0.7 | 1.8
O=C(O)c1cn[nH]c1-c1cccc([N+](=O)[O-])c1 | -2 | 10% | 0.75 | -0.6 | -11 | -0.9 | 4.8
C/C=C(\C)c1nnc(NC(=O)c2ccco2)s1 | -6 | 12% | 0.68 | -1.8 | -5.9 | -4.9 | 5.8
c1ccc2[nH]c(-c3ccncc3)nc2c1 | 2 | x | 0.62 | 4.1 | -3.7 | -1.6 | -27
CC(NC(=O)c1ccccc1)c1ccc(Br)cc1 (stereo not drawn) | -2 | x | 0.65 | -11 | 1.4 | -0.3 | 0.8
CCOC(=O)N1CCC(Nc2c(NCCN3CCN(c4cccc(Cl)c4)CC3)c(=O)c2=O)CC1 | -1 | -3% | 0.75 | 2.2 | 0.5 | -0.1 | 4.4
CCCc1ccc(C(C)NC(=O)c2cnccn2)cc1 (stereo not drawn) | 0 | 1% | 0.76 | 0.5 | 1.8 | -0.5 | -7.0
Cc1ccc(S(=O)(=O)N2CCNC(=O)CC2)cc1 | -4 | -2% | 0.72 | -2.4 | 3.5 | 0.2 | 1.5
Cn1c(N)c(S(=O)(=O)NCc2ccccc2Cl)c(=O)n(C)c1=O | -1 | 8% | 0.72 | 3.0 | -0.1 | -0.1 | 3.3
O=C(OCC(=O)N1CCN(C(=O)c2ccco2)CC1)c1ccccc1NCCO | -2 | 8% | 0.67 | -0.2 | 0.5 | 0.6 | i
O=C(CCc1ccccc1)N=C1SC2CS(=O)(=O)CC2N1Cc1ccc(F)cc1 (stereo not drawn) | -2 | x | 0.69 | 3.0 | 0.2 | -2.3 | 3.1
Cc1ccc(S(=O)(=O)NNC(=O)c2ccc(NC(=O)C3CC3)cc2)cc1 | 0 | 1% | 0.73 | 2.5 | 0.7 | 1.3 | 0.8
Cc1ccc(C)c(NC(=O)CSc2nnc(CSc3nc(C)cc(C)n3)n2Cc2ccco2)c1 | -2 | 0% | 0.71 | 1.6 | 3.0 | 0.4 | -0.1
CCC(C)c1ccccc1N1CC(C(=O)Nc2ccccc2N2CCCC2)CC1=O (stereo not drawn) | 3 | x | 0.74 | -8.8 | 8.1 | -0.1 | 4.3
